HCMV UL50-53 inh = inhibitors of HCMV UL50-UL53 nuclear egress complex interaction; HTRF UL50-UL53 interaction, normalized percent inhibition; inhibition, % (test concentration not listed); actives 0.15% (n = 190,000);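 active = both replicates at 50% or more, plus weaker picks with an unusually low signal ratio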;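 note: stock transfer was 100 nL into about 20 µL; 0% = negative control wells and 100% = wells with untagged competitor protein; inactives centre near -12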
Sa growth inh = S. aureus growth inhibition. S. aureus RN4220 growth, OD600, 20 h, 42 °C; hits give low values. actives 0.53% (n = 170,000). relative growth, % (no concentration beside the values). AID 720641;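 active = growth at 42 °C up to 50% and 20 or more points under that at 30 °C, or under 10% at both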;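 note: 300 nL library stock went into each well; scaled to the means of positive and negative controls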
GIV-Gai inh = blocks GIV peptide binding to rat Galpha-i3; P08753; Galpha-i3/FITC-GIV peptide fluorescence polarization, 90 min; hits give low values; scaled: aluminum fluoride 0%, vehicle 100%; percent of control (FP), % (no concentration beside the values); actives 0.42% (n = 210,000);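 active = replicate mean at 85% of control or lower, very high polarization wells dropped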;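 note: wells of about 15 µL received 100 nL stock; the first replicate is given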
Target sequence (P08753 whole entry, looked up): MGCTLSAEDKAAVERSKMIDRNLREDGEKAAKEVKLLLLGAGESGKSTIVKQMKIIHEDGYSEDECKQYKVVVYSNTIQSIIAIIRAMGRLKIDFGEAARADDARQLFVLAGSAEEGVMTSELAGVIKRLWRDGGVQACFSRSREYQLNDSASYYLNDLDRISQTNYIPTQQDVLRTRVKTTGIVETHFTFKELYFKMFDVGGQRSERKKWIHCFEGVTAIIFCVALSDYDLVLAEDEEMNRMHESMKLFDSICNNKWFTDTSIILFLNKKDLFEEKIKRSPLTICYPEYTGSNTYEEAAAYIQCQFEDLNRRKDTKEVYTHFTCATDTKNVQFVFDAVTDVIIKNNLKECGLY
Sa growth inh second temp = also measured in Sa growth inh; calls as there; relative growth, %; measured here: growth at 30 °C;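 optical density after 20 h as mean of two plates; 100% = untreated growth and lower means inhibition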
* hit, by the source's call; / = no result given; & = joins results of further samples.

Letters – A = HCMV UL50-53 inh; B = Sa growth inh; C = Sa growth inh second temp; D = GIV-Gai inh
structure: Cc1cccc(-c2nc3c4ccccc4nc(NCCc4ccccc4)n3n2)c1
  A: 15.7	B: 99.2	C: 94.3	D: 104.7
structure: Cc1cc(NC(=O)C(C)Oc2ccccc2)n(-c2ncnc3c2cnn3-c2ccc(Cl)cc2)n1 (configuration not stated)
  A: -25.8	B: /	C: /	D: 97.2
structure: C=CCSc1n[nH]c(C(C)(C)C)n1
  A: /	B: 111.8	C: 95.2	D: 104.7
structure: COc1ccc(NC(=O)c2cn(-c3ccccc3)cn2)cc1Cl
  A: -23.8	B: /	C: /	D: 101.5
structure: CCCNC(=O)c1nnc(Cc2ccc3c(c2)OCO3)o1
  A: /	B: 79.2	C: 86.7	D: 103.1
structure: CN(Cc1ccccc1)C(=O)Cn1ncc2c([nH]c3ccccc32)c1=O
  A: -42.9	B: 99.9	C: 86.5	D: 104.4
structure: Cc1ccc(C)c(Cn2cnc3oc(C)c(C)c3c2=O)c1
  A: -15.2	B: /	C: /	D: 98.1
structure: CC(C)c1ccc(NC(=O)C2CCCN(S(=O)(=O)c3ccc4[nH]c(=O)oc4c3)C2)cc1 (configuration not stated)
  A: /	B: 90.1	C: 95.7	D: 98.0
structure: Oc1ccc2ccccc2c1SSc1c(O)ccc2ccccc12
  A: -21.9&-12.3&-5.0&-29.1	B: /	C: /	D: 102.5
structure: CC1CCN(S(=O)(=O)c2ccc3c(c2)oc(=O)n3CC(=O)N2CCCC(C)C2)CC1 (configuration not stated)
  A: -23.0	B: /	C: /	D: 99.2
structure: CCCc1cc(=O)[nH]c(SCc2nc(-c3ccc(OC)cc3)no2)n1
  A: /	B: 68.5	C: 94.0	D: 101.6
structure: Cc1cc(C(=O)Nc2cccc3c2CCCC3)n[nH]1
  A: -21.0	B: 92.5	C: 84.3	D: 98.8
structure: CC1CCCC(NS(=O)(=O)CC23CCC(CC2=O)C3(C)C)C1C (configuration not stated)
  A: 11.2	B: 115.2	C: 92.8	D: /
structure: O=C(Nc1ncn[nH]1)C1CCN(S(=O)(=O)c2ccc(Cl)cc2)CC1
  A: -17.7	B: 107.4	C: 88.3	D: 103.6
structure: O=C(Nc1ccc(Cl)c(C(F)(F)F)c1)c1nccnc1CO
  A: -14.1	B: 104.8	C: 89.6	D: 101.4
structure: COc1ccc(CCNC(=O)CCc2c(C)c3cc4c(C)c(C)oc4cc3oc2=O)cc1OC
  A: 20.7	B: 97.9	C: 89.3	D: 102.7
structure: NS(=O)(=O)c1ccc(CCNS(=O)(=O)c2ccc3c(c2)NC(=O)CO3)cc1
  A: -17.0	B: /	C: /	D: 111.8
structure: Cn1c(=O)cc(SCC(=O)NCCCN2CCN(c3ccccc3F)CC2)c2ccccc21
  A: /	B: 107.4	C: 80.6	D: 97.5
structure: COc1ccc(NC(=O)C(NC(=O)c2ccccc2)C(C)C)cn1 (configuration not stated)
  A: -28.5	B: 103.2	C: 86.4	D: /
structure: Cc1[nH]n(-c2ccc(Cl)cc2)c(=O)c1C(=O)c1ccccc1
  A: -17.1	B: 64.2	C: 42.7	D: 106.1
structure: COc1ccc(-n2ncnc2-c2cc3c(n(-c4ccc(OC)cc4)c2=O)CC(C)(C)CC3=O)cc1
  A: -30.9	B: /	C: /	D: 98.0
structure: CSc1nnc(-c2cnccc2C(F)(F)F)n1-c1ccc(Cl)cc1
  A: -1.9	B: 99.9	C: 104.7	D: 104.9
structure: Cc1nn(-c2ccccc2)c(-n2cccc2)c1C(=O)N1CCC(C(=O)NC2CCCCC2C)CC1 (configuration not stated)
  A: -12.5	B: /	C: /	D: 106.7
structure: CN(CCC#N)S(=O)(=O)c1cc(Br)ccc1Br
  A: 9.3	B: 104.5	C: 91.9	D: /
structure: Cc1cc(=O)[nH]c(SCC(=O)NC2CCCCC2)n1
  A: -12.1	B: 116.3	C: 104.0	D: 102.2
structure: O=c1[nH]c2ccccc2c(=O)n1CCNCc1ccccc1
  A: -7.8	B: 98.9	C: 92.0	D: 115.7
structure: CSc1ncc(C(=O)OCC(=O)N2CC(C)OC(C)C2)n1-c1ccccc1 (configuration not stated)
  A: -24.1	B: 98.3	C: 78.7	D: /
structure: COc1cc2c(cc1OC)C(c1ccccc1)N(C(=O)c1ccco1)CC2 (configuration not stated)
  A: 8.7	B: 100.2	C: 99.6	D: 107.5
structure: O=C(NCCCN1CCOCC1)c1cc2ccccc2oc1=O
  A: -73.1	B: 125.5	C: 88.2	D: 108.0
structure: NC1=Nc2cc(=O)[nH]c3nnc(n23)SC1
  A: -10.9	B: 100.9	C: 77.1	D: 99.3
structure: CCCCn1cc(S(=O)(=O)c2ccc(F)cc2)c(=O)c2ccccc21
  A: -37.2	B: 103.2	C: 81.1	D: 104.5
structure: O=C(NC1CCCCCC1)C1C2C=CC3(CN(Cc4cccnc4)C(=O)C13)O2 (configuration not stated)
  A: /	B: 93.6	C: 87.0	D: 105.5
structure: Clc1ccccc1Cn1nnc2c(N3CCCCC3)ncnc21
  A: 44.5	B: 120.3	C: 94.2	D: 100.0
structure: COc1ccc(-c2noc(N(CCC#N)c3ccccc3)n2)cc1
  A: /	B: 79.7	C: 68.7	D: 99.0
structure: CCOC(=O)N1CCC2(CC1)NCCc1c2[nH]c2ccccc12
  A: -13.1	B: 97.4	C: 89.6	D: 104.3
structure: COC(=O)c1ccc2nc(C)cc(Nc3cccc(Cl)c3C)c2c1
  A: 21.2	B: 103.2	C: 108.1	D: 133.6
structure: CCOC(=O)c1ccc(NC(=O)CC2NCCNC2=O)cc1 (configuration not stated)
  A: 10.1	B: 86.4	C: 88.6	D: 104.6
structure: O=C(OCC1c2ccccc2-c2ccccc21)ON1C(=O)CCC1=O
  A: 50.9	B: 88.5	C: 89.5	D: 98.4
structure: CCc1nc2ccccc2n1CC(O)COc1cc(OC)cc(OC)c1 (configuration not stated)
  A: -7.2	B: 97.5	C: 83.5	D: 108.6
structure: C=CCn1c(=S)[nH]c2cc(C(=O)N3CCN(c4ccccc4OC)CC3)ccc2c1=O
  A: -3.1	B: 101.7	C: 95.2	D: /
structure: O=C(CSc1nc2c(oc3ccccc32)c(=O)n1Cc1ccco1)Nc1ccccc1
  A: 7.6	B: 98.8	C: 90.1	D: 104.5
structure: CC(=O)NC(CC(C)C)C(=O)O (configuration not stated)
  A: -7.5	B: 97.1	C: 90.2	D: 98.6
structure: CCOc1ccc(CCNC(=O)c2cnc3c(-c4ccc(F)cc4)c(C)nn3c2C)cc1OCC
  A: /	B: 103.9	C: 102.6	D: 111.5
structure: O=C(Cn1c(=O)oc2ccccc21)NCCc1ccccc1
  A: /	B: 101.8	C: 92.2	D: 99.3
structure: CCOC(=O)c1ccc(NC(=O)CN2C(=O)c3cccnc3Sc3ccccc32)cc1
  A: /	B: 95.7	C: 82.2	D: 107.2

Three records picked at random from those above:
Letters – A = HCMV UL50-53 inh; B = Sa growth inh; C = Sa growth inh second temp; D = GIV-Gai inh
structure: CC(=O)NC(CC(C)C)C(=O)O (configuration not stated)
  A: -7.5	B: 97.1	C: 90.2	D: 98.6
structure: CCOC(=O)c1ccc(NC(=O)CC2NCCNC2=O)cc1 (configuration not stated)
  A: 10.1	B: 86.4	C: 88.6	D: 104.6
structure: CCOC(=O)N1CCC2(CC1)NCCc1c2[nH]c2ccccc12
  A: -13.1	B: 97.4	C: 89.6	D: 104.3

New compounds follow.
Letters – A = HCMV UL50-53 inh; B = Sa growth inh; C = Sa growth inh second temp; D = GIV-Gai inh
structure: COc1ccc(CCN2C(=O)C3C4C=CC(O4)C3C2=O)cc1OC (configuration not stated)
  A: -5.5	B: 79.1	C: 103.8	D: 101.3
structure: O=C(O)c1cc(Cl)ccc1OCc1ccccc1
  A: -1.1	B: 126.7	C: 105.2	D: 105.2
structure: Cc1cc(NC(=O)c2ccccc2OCc2ccccc2)no1
  A: -0.6	B: 85.7	C: 86.1	D: /
structure: O=C(CCN1C(=O)C2CC=CCC2C1=O)N1CCN(c2ccccn2)CC1 (configuration not stated)
  A: /	B: 122.7	C: 93.5	D: 96.3
structure: CC1=C(C#N)C(c2ccccc2)C2=C(N1)c1ccccc1C2=O (configuration not stated)
  A: 24.3	B: 86.0	C: 70.8	D: 89.3
structure: Cc1ccc(CNC(=O)Cn2c(-c3cccs3)cc3cc(Cl)ccc32)cc1
  A: /	B: 113.8	C: 96.8	D: 109.5
structure: CC(C)(C)c1ccc(C(=O)NC2(C(F)(F)F)C(=O)Nc3c2c(=O)[nH]c(=O)n3-c2ccccc2)cc1 (configuration not stated)
  A: -13.7	B: 92.3	C: 92.8	D: 100.4
structure: COc1ccc(C2OC(c3ccc(S(=O)(=O)N4CCCCC4)cc3)=NN2C(C)=O)cc1 (configuration not stated)
  A: /	B: 82.2	C: 92.5	D: 104.1
structure: Cc1ccc(C(=O)OCC(=O)c2ccccc2)cc1
  A: -0.1	B: 91.7	C: 91.7	D: 104.2
structure: Cc1ccc(CNc2ccc3cc(S(=O)(=O)N4CCCCC4)ccc3n2)cc1
  A: /	B: 118.8	C: 90.7	D: 106.4
structure: CC1CCCCN1Cc1c(O)ccc2c(=O)c(-c3ccc(Cl)cc3)coc12 (configuration not stated)
  A: /	B: 92.0	C: 88.8	D: 102.4
structure: Cc1c2cnn(CC(=O)NC(C)C)c(=O)c2c(C)n1Cc1ccccc1Cl
  A: -16.2	B: 99.9	C: 89.4	D: 105.0
structure: COC(=O)C1C2C=CC3(CN(C4CCCCC4)C(=O)C13)O2 (configuration not stated)
  A: -9.6	B: 99.3	C: 87.0	D: 100.3
structure: Cc1ccc2c(cnn2C(=O)Nc2ccc3c(c2)OCCO3)c1
  A: -18.1	B: /	C: /	D: 103.5
structure: Cn1c(=O)c2c(nc(SCc3ccc(F)cc3)n2Cc2ccccc2)n(C)c1=O
  A: 1.2	B: 91.9	C: 91.2	D: 97.7
structure: COc1ccc(CNC(=O)C2CCCN(c3ncnc4onc(-c5ccc(F)cc5)c34)C2)cc1 (configuration not stated)
  A: -23.3	B: 105.0	C: 79.5	D: 104.2
structure: N#Cc1ccccc1OCC(=O)OCc1ccccc1F
  A: -29.5	B: 97.8	C: 80.5	D: /
structure: Cc1[nH]c2ccccc2c1C(c1ccccc1)N1CCN(C)CC1 (configuration not stated)
  A: /	B: 81.5	C: 39.9	D: 98.1
structure: CCOC(=O)c1cc(-c2ccc(OC)cc2)n(CCC(=O)N2CCc3ccccc32)c1C
  A: /	B: 84.1	C: 92.0	D: 103.6
structure: COc1ccccc1CNS(=O)(=O)Cc1ccccc1
  A: -6.8	B: 100.1	C: 107.3	D: 99.8
structure: O=C1c2ccccc2C(=O)N1CCCC(=O)N1c2ccccc2Sc2ccccc21
  A: -2.2	B: 104.9	C: 85.7	D: 103.9
structure: CN(C)C(=O)c1ccc(N2CCNCC2)c(NS(=O)(=O)c2ccc(Br)cc2)c1
  A: -15.6	B: /	C: /	D: 101.8
structure: Cc1ccc(C)c(N2C(=O)c3cc4ccsc4n3CC2(C)C(=O)NC2CCCC2)c1 (configuration not stated)
  A: -10.3	B: /	C: /	D: 111.7
structure: CCOC(=O)c1c(N2C(=O)C3ON(c4ccccc4C)C(c4ccccc4)C3C2=O)sc(C)c1C (configuration not stated)
  A: /	B: 35.2	C: 38.4	D: 105.7
structure: O=C(Nc1cccc(Cl)c1)c1nc(Nc2ccccc2)c2ccccc2n1
  A: -20.3	B: /	C: /	D: 101.5
structure: CC(C)=NNC1=NC(C)(C)Cc2ccccc21
  A: -4.6	B: 96.9	C: 85.3	D: 101.6
structure: Cc1ccc(NC(=O)Nc2c[nH]c(=O)[nH]c2=O)cc1C
  A: -3.2	B: /	C: /	D: 91.9
structure: CN(C(=O)c1cc2nc(-c3ccc4c(c3)OCO4)cc(C(F)(F)F)n2n1)c1ccc(OC(F)(F)F)cc1
  A: -0.3	B: 102.8	C: 90.4	D: 103.1
structure: COc1cc(C2CC(C(F)(F)F)n3ncc(C(=O)N4CCN(Cc5ccccc5)CC4)c3N2)cc(OC)c1OC (configuration not stated)
  A: -14.2	B: /	C: /	D: 92.4
structure: CC(C)Sc1nc2cc(S(=O)(=O)N3CCCCC3)ccc2o1
  A: 1.3	B: 94.4	C: 93.6	D: /
structure: Cn1c(=O)cc(OCC(=O)N2CCN(c3ccccc3)CC2)c2ccccc21
  A: -31.2	B: 96.3	C: 88.7	D: 104.8
structure: COc1ccc(CC2C(=O)Nc3ccc(Br)cc32)cc1OC (configuration not stated)
  A: 1.9	B: 101.2	C: 90.6	D: 99.5
structure: Cc1ccc(C)c(NC(=O)C(C)n2nnc3sc4c(c3c2=O)CCCC4)c1 (configuration not stated)
  A: -24.9	B: /	C: /	D: 107.8
structure: O=C(Nc1ccc2c(c1)OCO2)c1cc(S(=O)(=O)N2CCN(c3ccccc3)CC2)ccc1Cl
  A: -14.7	B: 91.6	C: 98.7	D: /
structure: O=C(Nc1ccc(Br)cc1F)N1CCC2(CC1)Oc1ccccc1C(=O)N2Cc1ccccc1F
  A: 7.9	B: 103.1	C: 104.2	D: 105.6
structure: Cc1ccc(CN2CCCn3nc(C(=O)NCc4ccc(N(C)C)cc4)cc3C2=O)cc1
  A: /	B: 87.0	C: 91.7	D: 103.4
